Source: PubChem
Autofluor counter: compound fluorescence in toxin protease inhibitor counterscreen. hit rate 3.1% among 360,000. AID 624483. fluorescence intensity (no concentration beside the values). compound autofluorescence counterscreen, microsphere flow cytometry; hits give high values;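 active = at least 3 SD above the mean of all compounds, about 16000 in these data; inconclusive = too few beads counted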;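 note: 100 nL of 1 mM stock went into each well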
Sa RN4220 lethal: S. aureus RN4220 growth inhibition; OD600, 16 h; hit rate 0.33% among 330,000; inhibition, % (concentration not given with the values);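 active = z-score of -3 or lower and OD600 up to 0.18 on both plates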;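 note: plate controls were untreated cells for no effect and reference antibiotic for full effect; stock transfer was 100 nL into about 80 µL; one replicate is shown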
PrP UTR inh: suppresses PrP 5' UTR mRNA reporter expression | cell-based PrP 5' UTR mRNA reporter, plate reader | hit rate 0.35% among 340,000 | inhibition, % (test concentration not listed) | AID 488862;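 active = every replicate at 50% or more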;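 note: 0 = median of the neutral control wells; tested in H4 reporter cells; numbers are from one replicate; inactives centre near -14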
Sa ugtP lethal: compounds lethal to S. aureus RN4220 ugtP deletion mutant; growth inhibition, % (test concentration not listed); hit rate 0.54% among 330,000; OD600 growth, 16 h; some inactives read as strong as hits;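 active = z-score under -3 and OD600 up to 0.15 on both plates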;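 note: plate controls were untreated wells for no effect and antibiotic for full effect; wells of about 80 µL received 100 nL stock; the first replicate is given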
Mtb hypoxia inh: reduces hypoxia-regulated biosensor signal in M. tuberculosis | M. tuberculosis hypoxia-regulated fluorescent reporter, fluorescence | fluorescence inhibition, % (no concentration beside the values) | hit rate 0.1% among 300,000;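 active = 35 to 45% if threefold the growth effect, above 45% if 1.5-fold the growth effect; inactive = the rest, general growth blockers included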;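 note: wells of about 50 µL received 100 nL stock; 0% = vehicle wells and 100% = reference inhibitor wells; whole bacteria with a GFP reporter of the hypoxia response; strong numbers were not always called active; many hits fall short of the cut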
BJeLR lethal: BJeLR cell viability loss | BJeLR (HRASV12) viability, CellTiter-Glo ATP luminescence, 48 h; reference of the scale not given here | inhibition, % (no concentration beside the values) | hit rate 0.17% among 300,000;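 active = replicate mean above 50%; inconclusive = above 50% but judged a plate artefact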;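 note: 50 nL library stock added to about 25 µL; numbers are from one replicate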
Mtb hypoxia inh growth: also measured in Mtb hypoxia inh; calls as there; growth inhibition, %; measured here: M. tuberculosis growth (absorbance);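 0% = vehicle and 100% = reference antibiotic; read after six days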
An asterisk follows results filed as active; ? = inconclusive; · = no result given.

canonical_smiles,Autofluor counter,Sa RN4220 lethal,PrP UTR inh,Sa ugtP lethal,Mtb hypoxia inh,Mtb hypoxia inh growth,BJeLR lethal
O=C(NCC1CCCO1)C1CCN(C2CCN(C3CCCCCC3)CC2)CC1 (configuration not stated),5997,-1.2,-16,1,10,5,6
C/C(C=NNC(=O)c1cc(-c2ccc3ccccc3c2)n[nH]1)=C\c1ccco1,·,6.8,·,-17,-4,-18,·
C/C(CCN1CCc2nc(-c3ccccc3)c(-c3ccccc3)cc2C1)=N\O[C@@H](C)c1cc(-c2c(C)cc(C)cc2C)no1,2886,·,-13,·,·,·,14
CC12CCC(=O)N1C(C(=O)Nc1nc(-c3ccccc3Cl)cs1)CS2 (configuration not stated),5910,3.6,-16,-7,5,1,3
CCC(=O)c1ccc(OCc2ccc(C(=O)c3ccccc3)cc2)cc1,4004,4.5,-18,2,5,9,2
CCCCC1CNC(=O)C(=O)N1CCc1cc(C(F)(F)F)cc(C(F)(F)F)c1 (configuration not stated),·,1.2,·,-4,-4,-2,·
c1ccc(NC2=Nc3cccc4cccc2c34)cc1,4207,7.9,-35,-5,-2,-5,-10
NC(=O)CC(NC(=O)c1ccc(Br)cc1)c1ccc(N2CCN(c3ccc(F)cc3)CC2)c([N+](=O)[O-])c1 (configuration not stated),3899,23,-7,30,16,7,-6
C=CCn1c(SCC(=O)N(CCOC)c2c(N)n(CCCC)c(=O)[nH]c2=O)nnc1-c1ccc(Cl)cc1,?,2.6,10,6,10,3,-3
CSCCC(N=CC1=C(O)CC(C)(C)CC1=O)C(=O)O (configuration not stated),5179,-1.6,-2,11,·,·,0
COc1cccc2c(Cl)c(CCCl)c(C)nc12,4467,5.5,-9,6,-4,-5,13
O=C(CN1CCN(C(=O)c2ccc(OCc3cn4ccccc4n3)cc2)CC1)Nc1cccc(F)c1,3257,-0.5,-11,1,6,8,·
COc1cccc(NC(=S)N(Cc2cccc(Br)c2)CC2CCC(C(=O)O)CC2)c1 (configuration not stated),3165,5.7,-16,2,10,1,2
COc1ccccc1C=NNC(=O)c1ccc(COc2ccc(C)c(C)c2)o1,·,2.5,·,1,4,4,·
CC(=NNc1cc(N2CCOCC2)ncn1)c1ccccc1,·,4.8,·,-2,1,-5,·
CC(=O)N1c2ccc(S(=O)(=O)NCCC(=O)NCc3ccc(N(C)C)cc3)cc2CC1C (configuration not stated),4670,4.8,-9,8,0,-8,5
O=C(NN1C(=O)C2C3C=CC(O3)C2C1=O)c1ccccc1 (configuration not stated),3263,6.5,-24,5,13,7,0
COc1ccc(CN2CCc3ccccc3C2)c(OC)c1OC,10678,6.8,6,-2,3,11,4
Cc1ccnc(NC(=O)c2cc(S(=O)(=O)N3CCCCC3)ccc2Cl)c1,?,4.5,-13,5,0,3,5
CC(C)(C)Cc1nnc(NS(=O)(=O)Cc2ccccc2)s1,3183,7.2,-8,-5,-5,-4,1

Overlap with the part before: 2 compounds; new compounds follow.
canonical_smiles,Autofluor counter,Sa RN4220 lethal,PrP UTR inh,Sa ugtP lethal,Mtb hypoxia inh,Mtb hypoxia inh growth,BJeLR lethal
Cc1ccnc(NC(=O)c2cc(S(=O)(=O)N3CCCCC3)ccc2Cl)c1,?,4.5,-13,5,0,3,5
CC(C)(C)Cc1nnc(NS(=O)(=O)Cc2ccccc2)s1,3183,7.2,-8,-5,-5,-4,1
O=C(NCC(=O)N(CC1CCCO1)C(C(=O)NC1CCCCC1)c1ccccc1)c1cccs1 (configuration not stated),8109,3.9,-15,15,6,6,3
COc1ccccc1C(C(=O)NCc1ccccc1)N(C(=O)c1csnn1)C1CC1 (configuration not stated),4219,3.5,-18,0,12,-1,-5
COc1ccc(S(=O)(=O)Nc2ccc3c(c2)CC(=O)N([C@@H](C)CO)C[C@@H](C)[C@@H](CN(C)Cc2ccccc2)O3)cc1,3567,-17,-26,-12,6,11,·
Cc1ccc(C(=O)c2coc3ccc(O)cc23)cc1,4178,-0.2,-17,-1,8,1,1
CC1(CO)COC2(OC1)C(=O)Nc1ccccc12 (configuration not stated),?,0.1,-9,4,-2,0,·
COc1ccccc1C1c2ccc3ccccc3c2Oc2ncn(CCCO)c(=N)c21 (configuration not stated),4152,-5.8,-6,-6,13,16,5
Cc1cccc(C)c1NC(=O)COC(=O)c1cc(=O)[nH]c2ccccc12,8580,-1.2,-16,2,13,8,·
CC(=O)c1ccc(-n2nncc2C(C)(C)C)cc1,9043,-0.9,-27,-5,-12,-5,10
Cc1ccc(C)c(NC(=O)CN2C(=O)CC(C)S(=O)(=O)c3ccccc32)c1 (configuration not stated),4776,5.8,1,7,-1,-3,2
CCOc1ccccc1-n1c(SC(C)C(=O)NCC2CCCO2)nc2ccccc2c1=O (configuration not stated),3412,4.4,-28,8,-5,-8,·
CC1(C)CC(=O)c2cnc(NC(=O)Cc3ccc(Cl)cc3)nc2C1,2739,-0.7,-12,11,·,·,-3
Cc1cc(-c2nnc(CCC(=O)NCc3cccc(C(F)(F)F)c3)o2)no1,4943,-0.7,-19,-3,-3,-7,-3
O=C(NCc1ccc(OC(F)(F)F)cc1)C1CC2Cn3c(nc4ccccc43)C2N1c1ccccc1 (configuration not stated),3592,-0.9,-4,0,0,6,-14
OCCC1CN(Cc2cccn2-c2cccnc2)CCN1C1CCCC1 (configuration not stated),4716,2.7,-9,4,-1,8,0
CC1(c2ccccc2)NC(=O)N(CC(=O)Nc2cccc(/C=C/c3ccccn3)c2)C1=O (configuration not stated),4613,-0.2,-15,-5,0,3,6
CCn1c(SCC(=O)Nc2nc(-c3ccccc3)cs2)nnc1-c1ccccc1,6692,3.2,-8,5,-3,-16,-3
Cc1ccc(/C=N/N2CCN(Cc3cccc4ccccc34)CC2)s1,5325,·,-14,·,·,·,0
Cn1nc(C(=O)NC2CCCCC2)c2c1-c1ccccc1SC2,5647,1.0,-20,-12,5,0,12
O=C(NC1CCN(Cc2ccccc2)CC1)c1cc(S(=O)(=O)Nc2ccc(F)cc2)ccc1Cl,7655,0.6,-24,4,-2,5,·
CC(/C=C1\SC(=S)N(CCCC(=O)Nc2ccc(C(=O)O)cc2)C1=O)=C\c1ccccc1,10053,·,-10,·,·,·,-3
Cc1ccc(C(=O)NCC(=O)N2CCN(c3cccc(Cl)c3)CC2)s1,2779,2.7,-26,7,6,1,·
Cc1ccc(S(=O)(=O)N2CCCCC2)cc1C(=O)N1CCN(c2ccccn2)CC1,4543,7.8,-12,4,8,5,3
CCOC(=O)Cn1nc(C)c(NC(=O)c2ccc(Br)o2)c1C,3548,4.9,-18,3,-8,4,-2
Cc1cc(C)c2c(n1)sc1c(N3CCN(C)CC3)ncnc12,5719,2.8,-28,0,23,17,-4
C=CCOc1c(Cl)cc(CNc2nccs2)cc1OC,3980,1.2,-5,-1,-4,22,-6
Cc1cc(=O)[nH]c(SCC(=O)NC(C)C2CC3CCC2C3)c1C#N (configuration not stated),3304,1.5,-16,4,12,1,0
CCN(C[C@H]1N[C@@](Cc2ccccc2)(C(=O)OC)[C@H]2C(=O)N(Cc3ccccc3)C(=O)[C@@H]12)C(=O)c1ccccc1,4031,4.2,-11,5,-9,0,·
CC1CCN(CCC2CCCN2S(=O)(=O)c2cccc(O)c2)CC1 (configuration not stated),·,4.9,·,-2,2,-5,·
CCCCCc1ccc(OCCCC[n+]2ccccc2)c(CCCCC)c1,3920,101*,-13,93,·,·,22
CCCn1cc(S(=O)(=O)c2ccc(F)cc2)c(=O)c2cc(OCC)ccc21,6495,2.5,0,3,-7,2,-3
COC(=O)c1ccc(CSC2=NC[C@@H]3[C@@H]4C(=O)N(C)C(=O)[C@@H]4[C@](C)(C(=O)OC)N23)cc1,4135,2.6,-7,2,0,1,·
O=C(c1cnn2c(C(F)(F)F)cc(-c3cccs3)nc12)N1CCN(Cc2ccccc2)CC1,3146,-17,-8,2,10,16,1
COc1ccc(OCc2nnc(SCC(=O)Nc3ccc(C)cc3)o2)cc1,3020,4.4,-5,0,9,6,-5
COc1ccc(NC(=O)c2oc3ccccc3c2C)cn1,6750,1.4,-46,2,-2,2,0
Cc1ccc(S(=O)(=O)N2C(c3cccc(Cl)c3)CC=C(C(=O)O)C2c2ccc(Cl)cc2)cc1 (configuration not stated),·,24,·,48,12,6,·
Oc1ccccc1-c1cc(-c2ccc(F)cc2)n[nH]1,3282,-4.4,-66,9,5,11,-7
O=c1c(C(c2ccc(Br)cc2)c2c(O)nc3n(c2=O)CCS3)c(O)nc2n1CCS2,5001,2.6,-31,3,8,14,1
C#CCCOC(=O)N1C2=NC(C(=O)OC)=C(C(=O)OC)C3N(C)c4ccc(OC)cc4[C@]23CC1C(=O)OC (some centres not stated),·,3.7,·,-1,2,12,·
COC(=O)c1sccc1NC(=O)CC1NCCNC1=O (configuration not stated),6384,3.8,-13,3,12,-1,-9
COc1ccc(-n2nnnc2SCC(=O)N2CCN(C(=O)c3ccco3)CC2)cc1OC,4647,2.6,-27,4,11,5,-5
O=[N+]([O-])c1cccc(S(=O)(=O)NCc2ccccn2)c1,3394,5.5,-22,1,6,10,-6
Cc1ccc(S(=O)(=O)c2c(C)cc(C)nc2N2CCOCC2)cc1,2385,9.7,-44,15,22,0,3
O=C(NC1CCCCCC1)C1CCN(S(=O)(=O)c2c(Cl)cccc2Cl)CC1,5072,4.8,-13,15,9,1,·
Cc1noc(NS(=O)(=O)c2ccc(NC(=O)c3cc(F)c(F)c(F)c3F)cc2)c1C,?,5.4,-10,4,-9,-1,·
O=c1oc2cc(OCc3ccc(F)cc3F)ccc2cc1-c1ccccn1,4386,5.0,-46,-4,·,·,-12
CC(C)(C)N1CC(c2nc3ccccc3n2Cc2ccc(F)cc2)CC1=O (configuration not stated),4082,2.5,-20,-11,-5,-3,1
Cc1cccc2nc(CSc3nnc(N)s3)cn12,3089,5.2,-32,4,7,-4,-27
O=C(c1ccc([N+](=O)[O-])cc1)N1CCC(Cc2ccccc2)CC1,4909,-0.7,-22,3,19,12,-1
CC1CCN(C(=O)/C(=C\c2ccco2)NC(=O)c2ccccc2)CC1,3675,2.3,-8,5,-1,8,-7
COCc1cc(C)nc(SCC[N+](C)(C)CC(=O)c2ccc(Br)cc2)c1C#N,4193,2.5,-18,2,14,-1,7
Cc1c(Cl)cccc1NC(=S)NCCC(c1ccccc1)c1ccccc1,4485,-8.8,-10,17,·,·,-5
CCC(C)C1CN(C(CN2CCCC2CN2C(N)=NCC2Cc2ccccc2)C(C)C)C(=N)N1CCCC1CCCC1 (configuration not stated),·,100*,·,100*,·,·,·
COc1ccccc1CC(=O)Nc1ccc(S(=O)(=O)N2CCCC2)cc1,4357,5.5,-16,14,-12,6,-8
CC(=O)NCCc1nc2cc(NC(=O)COc3ccc(C)cc3)ccc2n1C,3756,4.9,-19,8,14,8,18
CC(=NNC(=O)C(N)=O)c1ccc(OC(F)F)cc1,·,1.3,·,-4,6,-2,·
Cc1cc(C)n(-c2cc(-n3nc(C)cc3C)ncn2)n1,9965,7.8,-24,-1,10,4,-14
CC(=O)NC(Cc1ccccc1C)C(=O)NC1CCN(c2ncccc2[N+](=O)[O-])CC1 (configuration not stated),·,-2.2,·,5,8,2,-3
Cc1ccc(OCCNC(=O)c2cccc(Oc3ccc(C(F)(F)F)cc3[N+](=O)[O-])c2)cc1,2700,-0.5,-18,-7,18,12,-9
CCc1ccccc1OCCCCN1CCCCC1,4170,0.8,-47,8,9,-11,6

Single values from the results shown:
In Mtb hypoxia inh growth, `O=C(c1cnn2c(C(F)(F)F)cc(-c3cccs3)nc12)N1CCN(Cc2ccccc2)CC1` is listed with 16
In Autofluor counter, `Cc1c(Cl)cccc1NC(=S)NCCC(c1ccccc1)c1ccccc1` is listed with 4485
In Sa ugtP lethal, `COc1ccc(S(=O)(=O)Nc2ccc3c(c2)CC(=O)N([C@@H](C)CO)C[C@@H](C)[C@@H](CN(C)Cc2ccccc2)O3)cc1` is listed with -12
In Mtb hypoxia inh growth, `CCN(C[C@H]1N[C@@](Cc2ccccc2)(C(=O)OC)[C@H]2C(=O)N(Cc3ccccc3)C(=O)[C@@H]12)C(=O)c1ccccc1` is listed with 0
